Cruzain Triton = qHTS Assay for Promiscuous and Specific Inhibitors of Cruzain (with detergent) | Potency, µM, for the others: max response, negative = inhibition, most hits filed as inhibitors | purified cruzain, Z-FR-AMC fluorescence, 0.01% Triton | AID 1478, 2009 | Cruzipain (Trypanosoma cruzi), P25779 | 0.43% of 200,000 active; active = well fitted curve in the direction sought with a large enough effect; inconclusive = small, poorly fitted or top-dose-only effect, or another doubt; inactive = no such curve, though single readings can be large; an effect the other way counts as inactive or inconclusive;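 note: plate controls were neutral wells for no effect and buffer without enzyme for full effect; nearly all actives have a fitted effect of over 40% in size; top concentration of the series not given in the record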
Target sequence (P25779 123-467 limits assumed): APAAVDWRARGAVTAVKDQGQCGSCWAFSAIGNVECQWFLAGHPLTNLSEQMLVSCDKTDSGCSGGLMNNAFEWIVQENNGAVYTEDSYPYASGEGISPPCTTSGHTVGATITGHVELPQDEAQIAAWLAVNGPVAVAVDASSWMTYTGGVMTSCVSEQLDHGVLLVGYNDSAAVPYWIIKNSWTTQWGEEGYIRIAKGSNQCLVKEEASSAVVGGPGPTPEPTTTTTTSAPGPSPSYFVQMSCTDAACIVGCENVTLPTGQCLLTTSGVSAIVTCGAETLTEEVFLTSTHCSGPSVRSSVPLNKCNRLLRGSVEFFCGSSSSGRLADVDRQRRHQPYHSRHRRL
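Purified cruzain (1.5 nM final) was preincubated with compounds for 15 min at room temperature in 100 mM sodium acetate pH 5.5, 5 mM DTT, 0.01% Triton X-100. Reaction started with 2 uM Z-FR-AMC; AMC fluorescence change over 60 s gave activity.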
StopGo reporter = High Throughput Screening for Foot and Mouth Disease Virus Antivirals; human cells with a luciferase reporter of 2A StopGo recoding; control for the full effect not named in the record; 1.2% of 410,000 active; Potency, µM (series often up to 57.9 µM), for the others: at the highest dose signal change, negative = less light; active = well fitted falling curve with a large enough effect; inconclusive = small, poorly fitted or top-dose-only effect; inactive = no such curve, though single readings can be large or run the other way; tested in HEK293T cells; note: % is set by controls: 0 for no effect and ±100 for the full control effect; nearly all actives have a fitted effect of over 45% in size; luciferase light after 4 h
NS1 function inh = qHTS Assay for Inhibitors of Influenza NS1 Protein Function. S. cerevisiae slowed by influenza A NS1, growth recovery by OD600. Potency, µM (doses to about 46.1 µM), for inactives: at the highest dose activity, positive = more growth. 0.4% of 270,000 active. AID 2326, 2010; note: actives are rising curves; nearly all actives have a fitted effect of over 50% in size
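A cell-based growth assay was used: compounds that relieve NS1-induced slow growth of budding yeast raise OD600. Assay medium was yeast nitrogen base with ammonium sulphate and -URA supplement, pH 6.0, with 2% galactose.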
Lassa entry inh = qHTS for Inhibitors of binding or entry into cells for Lassa Virus. Lassa virus pseudotype entry inhibition, cell reporter; control for the full effect not named in the record. Potency, µM (highest dose often 37.9 µM), for inactives: top-dose activity change, negative = inhibition, most hits filed as inhibitors. 1.2% of 300,000 active. AID 540256, 2011; active means well fitted inhibition curve with a large enough effect; inconclusive means small, poorly fitted or top-dose-only effect, or effect the other way; inactive means flat fitted curve, though single readings scatter; tested in HEK293 cells; note: % is set by controls: 0 for no effect and ±100 for the full control effect; nearly all actives have a fitted effect of over 50% in size; luciferase read-out
Cruzain noTriton = qHTS Assay for Promiscuous and Specific Inhibitors of Cruzain (without detergent); 2.3% of 200,000 active; Potency, µM, for the others: max response, negative = inhibition, usual class: inhibitors; purified cruzain, Z-FR-AMC fluorescence, no detergent; active = well fitted curve in the direction sought with a large enough effect; inconclusive = small, poorly fitted or top-dose-only effect, or another doubt; inactive = no such curve, though single readings can be large; an effect the other way counts as inactive or inconclusive;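 note: plate controls were enzyme without inhibitor for no effect and buffer without enzyme for full effect; nearly all actives have a fitted effect of over 40% in size; top concentration of the series not given in the record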
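Purified cruzain at 1.5 nM, pre-incubated 15 min with compound at room temperature in 100 mM sodium acetate pH 5.5, 5 mM DTT, 0.00005% Triton X-100. Reaction started with 2 uM Z-FR-AMC; AMC fluorescence increase over 60 s gives rate.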
SARS PLpro yeast = qHTS of Yeast-based Assay for SARS-CoV PLP; AID 485353, 2010; Potency, µM (top dose mostly 32.9 µM), without a hit: at the highest dose activity, positive = growth rescue; S. cerevisiae expressing SARS-CoV PLpro, growth rescue; control for the full effect not named in the record; 0.19% of 330,000 active; note: 0% is about no effect; nearly all actives have a fitted effect of over 55% in size; growth read by luminescence after 48 h
MARV entry inh = qHTS for inhibitors of binding or entry into cells for Marburg Virus; AID 540276, 2011; 1.8% of 300,000 active; Potency, µM (top dose mostly 37.8 µM), inactives show at the top dose activity change, negative = inhibition, actives largely listed as inhibitors; Marburg virus pseudotyped entry inhibition, cell reporter; control for the full effect not named in the record; about a third of the inactives were read at about 46 µM; active = well fitted inhibition curve with a large enough effect; inconclusive = small, poorly fitted or top-dose-only effect, or effect the other way; inactive = flat fitted curve, though single readings scatter; tested in HEK293 cells; about a fifth of its hits are not listed in these tables; note: % is set by controls: 0 for no effect and ±100 for the full control effect; luciferase read-out
RE007 growth inh = qHTS Assay for Inhibitors of the HIV-1 protein Vpr. S. pombe RE007 Vpr strain, BacTiter-Glo ATP luminescence, 24 h; control for the full effect not named in the record. Potency, µM (series often up to 92.2 µM), inactives show at the highest dose activity change, negative = less growth. 0.21% of 360,000 active. AID 651644, 2012; active = well fitted falling curve with a large enough effect; inconclusive = small, poorly fitted or top-dose-only effect; inactive = no such curve, though single readings can be large or run the other way;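 note: % is set by controls: 0 for no effect and ±100 for the full control effect; nearly all actives have a fitted effect of over 50% in size; the assay follows cell death caused by Vpr and the record does not say whether a fall means rescue or toxicity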
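Fission yeast strain RE007, carrying one chromosomally integrated HIV-1 vpr copy, was seeded at OD 0.01 in PMG+AL medium with 23 nL pinned compound. After 24 h at 30 °C and 99% humidity, viability was read by BacTiter-Glo luminescence.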
* = called active by the depositor; ? = inconclusive; . = no result given; & = joins results of further samples; [ ] = another dose, or the depositor's remark. Unless noted, calls come from the whole dose curve; as a rule, active means well fitted rising curve with a large enough effect; inconclusive means small, poorly fitted or top-dose-only effect; inactive means no such curve, though single readings can be large or run the other way. Potency is the fitted concentration of half-maximal effect. Rows were taken by chance; overall some 4.5% were active at least once.

#	Structure	Cruzain Triton	StopGo reporter	NS1 function inh	Lassa entry inh
1	O=C(C1CCN(S(=O)(=O)c2ccc(Br)cc2)CC1)N1CCOCC1	.	-15%	2%	.
2	O=C(CSc1nnc(Cn2c(=O)sc3ccccc32)n1CCc1ccccc1)N1CCCC1	-5.0%	-7%	4%	.
3	O=C(Cn1ncc2c3ccccc3n(Cc3cccc(Cl)c3)c2c1=O)NCCCc1ccccc1	-5.3%	-8%	.	-2%[46.1 µM]
4	Cc1ccnc(N2CCCC(C(=O)Nc3cc(F)ccc3C)C2)n1 (stereo not drawn)	3.1%	-14%	-16%	-4%
5	O=C(CCC(=O)N1CCCC1)Nc1nnc(C2CCCCC2)s1	3.6%	-5%	-2%	9%
6	CCN(CC(=O)NC(C)C)C(=O)c1ccc(S(=O)(=O)N(C)c2ccccc2OC)cc1	-1.2%	-7%	-1%	-1%
7	COc1ccccc1NC(=O)c1sc2ncn(CC(=O)N3CCC(C)CC3)c(=O)c2c1C	.	6%	13%	.
8	CCN(CC)CCNC(=O)c1ccc2c(=O)n3nc(Nc4ccccc4OC)sc3nc2c1	-8.6%	-10%	.	-3%[46.1 µM]
9	COc1ccc(N2CCN(C(=O)C3CCN(S(=O)(=O)c4ccccc4)CC3)CC2)cc1	.	-8%	2%	-15%[46.1 µM]
10	COc1ccc2oc(-c3cccc(NC(=O)c4sc5c([N+](=O)[O-])cccc5c4Cl)c3)nc2c1	0.5%	-2%	.	-3%[46.1 µM]
11	CN(Cc1nc(-c2ccccn2)no1)S(=O)(=O)c1ccccc1	3.2%	30%	1%	8%
12	CC(C)(C)S(=O)(=O)c1cnc(-c2cnccn2)nc1N	.	25%	?	6%

#	Cruzain noTriton	SARS PLpro yeast	MARV entry inh	RE007 growth inh
1	.	-1%	.	29%
2	1%	-2%	.	3%
3	-2%	.	3%[46.1 µM]	.
4	-9%	13%	-27%	7%
5	3%	-2%	3%[46.1 µM]	-6%
6	7%	0%	-5%	?
7	.	-13%	.	2%
8	-6%	.	.	.
9	.	-1%	?	7%
10	15%	.	2%[46.1 µM]	.
11	-27%	0%	-1%	9%
12	.	2%	9%&9%[46.1 µM]	5%

Molecules shown so far that contain a thiophene ring, fused or not, in the order listed:
#	Structure	Cruzain Triton	StopGo reporter	NS1 function inh	Lassa entry inh
7	COc1ccccc1NC(=O)c1sc2ncn(CC(=O)N3CCC(C)CC3)c(=O)c2c1C	.	6%	13%	.
10	COc1ccc2oc(-c3cccc(NC(=O)c4sc5c([N+](=O)[O-])cccc5c4Cl)c3)nc2c1	0.5%	-2%	.	-3%[46.1 µM]

#	Cruzain noTriton	SARS PLpro yeast	MARV entry inh	RE007 growth inh
7	.	-13%	.	2%
10	15%	.	2%[46.1 µM]	.

New compounds follow:
#	Structure	Cruzain Triton	StopGo reporter	NS1 function inh	Lassa entry inh
13	Cn1ncc([N+](=O)[O-])c1C(=O)N1CCOCC1	4.2%	25%	4%	3%
14	CCOc1cccc(C(=O)Nc2cccc(-c3nnc(-c4ccc(C)cc4)o3)c2)c1	2.3%	-25%	-10%	0%
15	O=C(Cc1nn[nH]n1)c1ccccc1O	0.6%	1%	-5%	20%
16	Cc1cc(C(=O)NCc2ccco2)c2ccccc2n1	.	5%	5%	11%
17	CCOc1ccc(Nc2nc3ccccc3c(=O)s2)cc1	.	-22%	3%	.
18	CCn1c(C)cc(/C=C2/SC(=O)N(C(C)C(=O)OC)C2=O)c1C (stereo not drawn)	.	-12%	0%	?
19	CC(C)CCNC(=O)CCc1nnc(COc2ccccc2)o1	.	19%	1%	29%
20	COc1ccc(/C=C/C(=O)Nc2ccc(N3CCOCC3)cc2)cc1	-5.1%	-19%	-6%	17%
21	O=C(CSc1cccc2cccc(Cl)c12)NCc1cccs1	-4.1%	4%	-8%	?
22	COc1cc(NC(=O)CSc2nc(=O)n(CCN3CCOCC3)c3c2CCC3)cc(OC)c1	.	-5%	.	12%
23	CCn1nnc(NC(=O)c2ccc(-c3ccccc3[N+](=O)[O-])o2)n1	.	14%	-9%	-1%[46.1 µM]
24	O=C(Nc1ccc(Cl)cc1)c1cnc(-c2ccccc2)nc1-c1ccccc1	8.4%	1%	4%	-18%

#	Cruzain noTriton	SARS PLpro yeast	MARV entry inh	RE007 growth inh
13	1%	-1%	11%	-1%
14	13%	6%	?	-12%
15	-2%	-8%	4%	14%
16	.	1%	?	-11%
17	.	-1%	.	3%
18	.	0%	?	1%
19	.	0%	29%[46.1 µM]	7%
20	?	21%	-6%	36%
21	-3%	-18%	?	17%
22	.	0%	?	-17%
23	.	0%	18%[46.1 µM]	-13%
24	?	7%	-12%	6%

Record cards, as listed above.
Cn1ncc([N+](=O)[O-])c1C(=O)N1CCOCC1 is listed with Cruzain Triton: 4.2%; StopGo reporter: 25%; NS1 function inh: 4%; Lassa entry inh: 3%; Cruzain noTriton: 1%; SARS PLpro yeast: -1%; MARV entry inh: 11%; RE007 growth inh: -1%
O=C(Nc1ccc(Cl)cc1)c1cnc(-c2ccccc2)nc1-c1ccccc1 is listed with Cruzain Triton: 8.4%; StopGo reporter: 1%; NS1 function inh: 4%; Lassa entry inh: -18%; Cruzain noTriton: ?; SARS PLpro yeast: 7%; MARV entry inh: -12%; RE007 growth inh: 6%

The results go on.
#	Structure	Cruzain Triton	StopGo reporter	NS1 function inh	Lassa entry inh
25	CCN(CC(=O)NCc1ccc(Cl)cc1)C(=O)COc1cccc(C(F)(F)F)c1	.	-6%	.	2%
26	Cc1cccc(NS(=O)(=O)c2cccc(C(=O)NCC(c3ccco3)N(C)C)c2)c1 (stereo not drawn)	.	13%	.	-6%
27	COc1ccccc1-c1nc(C#N)c(N2CCCCCC2)o1	?	-11%	-18%	-1%
28	Cc1cnc(SCCc2ccncc2)nc1C	2.8%	.	-19%	.
29	O=C1NN(c2cccc(Br)c2)C(=O)/C1=C\c1ccccc1	.	?	-8%	8%[46.1 µM]
30	NS(=O)(=O)c1ccc(NCc2ccccc2OCc2ccccc2F)cc1	-6.1%	.	18%	3%
31	Cc1cc(Oc2ccccc2)nc(-c2ccccc2)n1	1.1%	1%	-38%	12%
32	COc1cccc(N2C(=O)N(CC(=O)NCc3cccc(OC)c3OC)c3ccccc3S2(=O)=O)c1	2.7%	?	.	-22%[46.1 µM]
33	Cc1ccc(OCC(=O)Nc2cccc(-c3nc4ccccc4o3)c2C)cc1C	1.9%	-16%	.	-11%[46.1 µM]
34	CC(Oc1ccc2ccc(=O)oc2c1)C(=O)NC(Cc1c[nH]c2ccc(O)cc12)C(=O)O (stereo not drawn)	.	-12%	24%	.
35	CCN(C(=O)COc1ccc(C)nc1[N+](=O)[O-])C1CCS(=O)(=O)C1 (stereo not drawn)	0.8%	1%	20%	4%
36	COc1cc(C(=O)NC(C)CCc2ccccc2)cc(OC)c1OC (stereo not drawn)	.	-21%	2%	?

#	Cruzain noTriton	SARS PLpro yeast	MARV entry inh	RE007 growth inh
25	.	-1%	-16%	1%
26	.	-5%	-15%	2%
27	16%	-12%	?	14%
28	5%	-7%	7%	.
29	.	-4%	8%[46.1 µM]	25%
30	-3%	-2%	?	1%
31	1%	-5%	6%	-6%
32	12%	.	.	.
33	-3%	.	5%[46.1 µM]	.
34	.	-2%	.	7%
35	4%	-1%	-3%	-5%
36	.	5%	21%	2%

Continued:
#	Structure	Cruzain Triton	StopGo reporter	NS1 function inh	Lassa entry inh
37	COc1ccccc1N(CC(=O)N1CCC(C)CC1)S(=O)(=O)c1ccc(C)cc1	-2.5%	40%[activator]	.	2%[46.1 µM]
38	O=C(CSc1ncn[nH]1)Nc1ccc(Cl)c(Cl)c1	0.5%	-16%	-18%	1%
39	Cc1cc(Cl)nc(Cl)c1C(=O)N1CCOCC1	.	-2%	.	20%
40	Cc1ccc2nc(NC(=O)CSc3ncc(C(=O)Nc4ccccc4)c(=O)n3C)sc2c1	0.9%	12%	.	2%[46.1 µM]
41	O=C(COc1coc(CN2CCN(c3ccccc3F)CC2)cc1=O)NC1CCCCC1	.	?	.	2%
42	Cc1ccccc1C(=O)N1CCN(c2ccc([N+](=O)[O-])c(NCc3cccnc3)c2)CC1	-21%	?	-3%	0%
43	CCOc1cc(S(=O)(=O)N2CCN=C2Cc2ccccc2)ccc1F	.	-13%	0%	1%
44	Cc1c(C(=O)N(C)Cc2nc3ccccc3c(=O)[nH]2)oc2ccccc12	.	?	.	?
45	Cc1ccc(S(=O)(=O)Nc2cc(C)cn(Cc3ccccc3)c2=O)cc1	.	9%	-31%	?
46	CCCCOc1ccc(/C=C/C(=O)OCC(=O)NC2CCS(=O)(=O)C2)cc1OCC (stereo not drawn)	.	-15%	.	9%
47	O=[N+]([O-])c1cccc(C(=S)N2CCCC2)c1	.	-2%	1%	1%[46.1 µM]
48	CCOc1ccc(S(=O)(=O)NCC(c2ccco2)S(=O)(=O)c2ccc(C)cc2)cc1 (stereo not drawn)	-3.3%	31%[activator]	.	?
49	NC(=O)Cn1c(=O)n(CCCCCC(=O)NCc2ccc(F)cc2)c(=O)c2sccc21	-1.3%	-2%	.	-4%[46.1 µM]
50	Cc1ccccc1NC(=O)c1cnc(Nc2nc3ccccc3s2)nc1C	6.5%	.	5%	.

#	Cruzain noTriton	SARS PLpro yeast	MARV entry inh	RE007 growth inh
37	2%	.	-7%[46.1 µM]	.
38	-3%	2%	-6%	-15%
39	.	2%	2%	-11%
40	1%	.	.	.
41	.	1%	-9%	1%
42	-10%	6%	?	17%
43	.	1%	-9%	-10%
44	.	0%	?	27%
45	.	-1%	?	-18%
46	.	-1%	?	2%
47	.	1%	2%[46.1 µM]	-18%
48	-2%	.	.	.
49	-6%	.	7%[46.1 µM]	.
50	12%	6%	.	.
